GIV Gai3 FP: GIV-Galpha-i interaction inhibition; P08753; Galpha-i3/FITC-GIV peptide fluorescence polarization, 90 min; stronger effect = lower value; scaled: aluminum fluoride 0%, vehicle 100%; percent of control (FP), % (concentration not given with the values); hit rate 0.42% among 210,000; AID 1224905;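 active means replicate mean at 85% of control or lower, very high polarization wells dropped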;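 further: wells of about 15 µL received 100 nL stock; the first replicate is given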
Target sequence (P08753 whole entry, looked up): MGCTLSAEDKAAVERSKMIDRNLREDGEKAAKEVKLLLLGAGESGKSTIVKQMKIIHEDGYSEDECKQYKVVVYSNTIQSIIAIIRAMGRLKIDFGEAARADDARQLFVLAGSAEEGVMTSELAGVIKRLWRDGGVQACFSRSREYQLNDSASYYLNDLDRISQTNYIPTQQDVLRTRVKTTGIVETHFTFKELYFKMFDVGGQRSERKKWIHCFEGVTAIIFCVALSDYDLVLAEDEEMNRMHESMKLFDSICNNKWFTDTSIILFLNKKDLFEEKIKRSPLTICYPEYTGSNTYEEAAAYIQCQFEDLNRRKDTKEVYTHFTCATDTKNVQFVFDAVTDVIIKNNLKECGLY
Numbers without * were called inactive. This is a subset (hit frequency here may not be typical).

SMILES | GIV Gai3 FP
Cc1cc(N2CCOCC2)nc(N2CCN(S(=O)(=O)c3ccccc3)CC2)n1 | 100
COc1ccc(-c2nc(-c3ccccc3)c(-c3ccccc3)[nH]2)c(OC)c1OC | 107
COC(=O)C1=c2s/c(=C/c3ccccc3)c(=O)n2C(N)=C(C#N)C1c1ccccc1 (configuration not stated) | 109
COc1ccc2c(c1)N(C)/C(=c1/s/c(=C3/C(=O)N(C)C(=S)N3C)n(Cc3ccccc3)c1=O)S2 | 111
CCCCOc1ccc(C2C=C(Nc3ccc(F)cc3)C(=O)N2c2ccc(F)cc2)cc1 (configuration not stated) | 105
CN(C)C1N(C(=O)c2cccc([N+](=O)[O-])c2)N=C2c3ccccc3S(=O)(=O)N21 (configuration not stated) | 116
CCOC(=O)c1c(C)oc2ccc(N(C(=O)c3ccccc3)S(=O)(=O)c3ccc(Br)cc3)cc12 | 104
COc1cc(C2Nc3ccc(Br)cc3C(c3ccccc3)O2)cc(Br)c1OC (configuration not stated) | 112
N#Cc1ccc(CSc2nnc(-c3ccco3)n2-c2ccccc2)cc1 | 105
O=C1C2C(c3ccccc3Cl)OC3(C(=O)c4ccccc4C3=O)C2C(=O)N1c1cccc(C(F)(F)F)c1 (configuration not stated) | 103
CC1CCCCN1S(=O)(=O)c1ccc(F)c(C(=O)Nc2cccc(Cl)c2Cl)c1 (configuration not stated) | 101
C=CCNC(=O)N1CCCN(C2=NS(=O)(=O)C(c3ccc(Cl)cc3)=C2C)CC1 | 106
Cc1ccc(-c2ccc(-n3nc(C)c(S(=O)(=O)N4CCCCC4)c3C)nn2)cc1 | 106
Cc1cccc(NS(=O)(=O)c2cc(-c3nc(C)c(C)s3)sc2C)c1 | 105
O=C1c2ccccc2NC2(C(=O)N(Cc3ccccc3Cl)c3ccccc32)N1Cc1ccccc1 (configuration not stated) | 112
NC(=O)C1CCN(C(=O)c2ccc3c(=O)n(Cc4ccco4)c(SCc4ccc([N+](=O)[O-])cc4)nc3c2)CC1 | 129
Cc1cc(C)nc(NS(=O)(=O)c2ccc(NC(=O)C3(c4ccccc4)CCCC3)cc2)n1 | 116
COc1ccc(-c2nnc(-c3nc(N4CCc5ccccc54)c4ccccc4n3)o2)cc1 | 109
Cc1ccc(S(=O)(=O)N2CCCC(C(=O)N3CCCC3c3nc(-c4ccccc4)no3)C2)cc1 (configuration not stated) | 104
C=CCn1c(=O)c2sc(N3CCCCC3)nc2n(CC(=O)Nc2cc(F)ccc2F)c1=O | 100
CCCS(=O)(=O)c1nc2ccc(NS(=O)(=O)c3ccccc3Cl)cc2s1 | 101
CCOC(=O)c1cnc2c(ccc3ccccc32)c1Nc1ccc(C)cc1 | 105
Cc1ccc(-n2c(-c3ccc(Cl)cc3)cn3c4c(=O)n(C)c(=O)n(C)c4nc23)cc1 | 103
CCN1C(=O)COc2ccc(-c3noc(CNS(=O)(=O)c4ccc(F)cc4)n3)cc21 | 106
O=C1C(=O)N(c2nccs2)C(c2ccc([N+](=O)[O-])cc2)/C1=C(/O)c1ccc(Cl)cc1 (configuration not stated) | 101
Cc1cc2c(cc1C)n(C1CC(=O)C3OCC1O3)c(=S)n2Cc1ccccc1Cl (configuration not stated) | 107
COC(=O)c1ccc(N2C(=O)CSC2c2cc3c(cc2Br)OCO3)cc1 (configuration not stated) | 110
CCC(C)OC(=O)c1ccc(-c2ccc(-c3ccc(C(=O)OC(C)CC)cc3)cc2)cc1 (configuration not stated) | 109
CCCCn1c(=O)nc2n(-c3ccc(C)cc3C)c3ccccc3cc-2c1=O | 107
Cc1csc(NC(=O)CSc2nc(C)nc3c2c(=O)n(C)c(=O)n3C)n1 | 103
Cn1c2sc3c(c2c(=O)n2nnnc12)CC(C)(C)OC3 | 108
Cc1c(NC(=O)c2cnn3c(C(F)(F)F)cc(-c4ccco4)nc23)c(=O)n(-c2ccccc2)n1C | 116
CC1(C)OC2OC(C(=O)NNC(=O)CCNC(=O)c3ccccc3)C3OC(C)(C)OC3C2O1 (configuration not stated) | 107
CCOC(=O)C1=C(C)NC2=C(C(=O)C(C(=O)OCC)C(c3ccc(OC)cc3)C2)C1c1ccc(Cl)cc1 (configuration not stated) | 104
CCc1cc(C2CCCN2S(=O)(=O)c2ccc(Cl)s2)on1 (configuration not stated) | 105
COc1ccc(C2/C(=C(\O)c3ccccc3)C(=O)C(=O)N2CCCN2CCOCC2)c(OC)c1 (configuration not stated) | 99
O=C(c1ccc2c(=O)n(Cc3ccc4c(c3)OCO4)c(=S)[nH]c2c1)N1CCN(c2ccccc2)CC1 | 102
CCOC(=O)C1CCN(C(=O)c2cc(NC(=O)c3ccc(C)cc3)cnc2N2CCNCC2)CC1 | 107
CNC(=O)c1csc(N2CCCC(C)C2)n1 (configuration not stated) | 108
CCOC(=O)CSc1nc2sc(C(=O)OCC)c(C)c2c(=O)n1CC1CCCO1 (configuration not stated) | 116
CCCC1(O)C(C)C(c2ccccc2)NC(c2ccccc2)C1C (configuration not stated) | 113
CCc1csc(C2CCCN(C(C)=O)C2)n1 (configuration not stated) | 104
C=CCNc1nc(C2(C)CC3(CC(COCC(C)C)OC3=O)C(=O)O2)cs1 (configuration not stated) | 103
Cc1ccccc1-c1nc(Cn2c(=O)c3cccnc3n(-c3ccccc3)c2=O)c(C)o1 | 111
Cn1c(CNS(=O)(=O)c2ccc(Cl)cc2)nc2cccnc21 | 107
CCSc1nc2c(c(=O)[nH]1)C(C(=O)Nc1ccccc1)CC(=O)N2 (configuration not stated) | 116
COc1ccc(C2C(C#N)=C(N)N(c3cccc(C)c3)C3=C2C(=O)CC(C)(C)C3)cc1OC (configuration not stated) | 111
CC(C)N1C(=O)c2ccccc2Sc2cc(NC(=O)C3CCC3)ccc21 | 92
Cc1ccc(-c2csc(-c3cc4cc(Cl)ccc4oc3=O)n2)cc1C | 111
COc1ccc(-n2cccc2/C=C2/SC(=Nc3ccc(F)cc3)NC2=O)cc1 | 102
CCOC(=O)C1=C(N)N(c2ccc(Cl)cc2)C2=C(C(=O)CCC2)C1c1cc(OC)c(OC)c(OC)c1 (configuration not stated) | 105
Cc1ccc(C(=O)Nc2cccc(C(=O)N3CCCC(C(=O)NCCc4ccccc4)C3)c2)cc1 (configuration not stated) | 106
COc1ccc(C2NCCc3c2[nH]c2ccccc32)cc1CN1CCc2cc(OC)c(OC)cc2C1C (configuration not stated) | 98
CCOc1ccccc1C1C(C#N)=C(SCC(=O)Nc2ccc(C(C)=O)cc2)NC2=C1C(=O)CCC2 (configuration not stated) | 108
COc1ccc(-c2nc(-c3ccn4cnnc4c3)no2)c(OC)c1 | 105
COC(=O)c1ccc2c(=O)n(-c3ccc4c(c3)OCO4)c(N3CCC(C)CC3)nc2c1 | 101
Cc1ccccc1S(=O)(=O)Nc1ccc(Sc2ccc(C(=O)NCCC(C)C)cn2)cc1 | 104
Cc1ccc(-c2cc(N3CCN(C(=O)c4ccc(C)c(C)c4)CC3)ncn2)cc1 | 100
COCCNC(=O)C1CCCN(S(=O)(=O)c2cc(-c3noc(C)n3)cs2)C1 (configuration not stated) | 104
Cc1nn(-c2ccc3nncn3n2)c(C)c1CCC(=O)Nc1ccccc1 | 107

Further entries
SMILES | GIV Gai3 FP
CNS(=O)(=O)c1ccc2c(c1)c(=O)n(CCC(=O)N1CCCC1)c(=O)n2C | 107
Cc1c(C(=O)NCCN2CCOCC2)sc2ncnc(N3CCN(c4ccccc4)CC3)c12 | 102
O=C(CCC(=O)N1CCCN(c2nc3cccnc3s2)CC1)N1CCN(c2ncccn2)CC1 | 109
Fc1ccc(NC2=NC3(CCCCC3)Cc3ccccc32)cc1F | 106
O=S(=O)(Nc1cccc(-c2nnc(-c3ccccc3)o2)c1)c1ccc(Br)cc1 | 104
COc1cc2c(cc1OC)C(COc1ccc([N+](=O)[O-])cc1)N(C(=O)c1cc3ccccc3oc1=O)CC2 (configuration not stated) | 110
O=C(Nc1ccc(OCc2cc(C(=O)NCCCc3ccccc3)no2)cc1)c1ccccc1 | 108
CCc1ccc(S(=O)(=O)N2CCSC2c2ccc(OC)c(OC)c2)cc1 (configuration not stated) | 107
COC(=O)C1=CN(Cc2ccc(OC)cc2)C=C(C(=O)OC)C1c1cc(Br)c(OC)c(OC)c1 | 103
CCCCNC(=O)C1CCN(C(=O)c2nn(C)c3c2CN(C(=O)C(C)C)CC3)CC1 | 109
CC1=C(C(=O)OCCc2ccccc2)C(c2ccc3c(c2)OCO3)C2=C(CC(c3cccs3)CC2=O)N1 (configuration not stated) | 111
CN1CCN(C(=O)CCC2CCCN(c3cc(NC4CC4)ncn3)C2)CC1 (configuration not stated) | 105
COc1ccc(C2C3=C(CC(c4ccc(C(F)(F)F)cc4)CC3=O)Nc3ccccc3N2C(=O)CCC(=O)O)cc1 (configuration not stated) | 103
O=S(=O)(c1cn(Cc2noc(/C=C/c3ccccc3)n2)cn1)N1CCCCC1 | 106
CC(=O)Oc1ccc2c(c1)OC(c1ccccc1)CC21CC(C)(C)NC(=O)N1 (configuration not stated) | 109
O=C(NCC1CC1)C1CCN(c2cnc(N3CCOCC3)nc2)CC1 | 103
COc1ccc(-c2c(C#N)c(N)n3c(nc4ccccc43)c2C#N)cc1O | 105
O=S(=O)(Cc1nc(-c2ccc(Br)cc2)no1)c1ccccc1 | 106
CNC(=O)N1CCCN(c2nc3cc(Br)ccc3n3cccc23)CC1 | 102
Cc1ccc(-c2nc(-c3ccc(NC(=O)c4cccc(Cl)c4)cc3)no2)cc1[N+](=O)[O-] | 119
CCOC(=O)N1CCN(C(=O)c2ccc3c(=O)n(CCc4ccccc4)c(SCC(=O)C(C)(C)C)nc3c2)CC1 | 107
O=C(Nc1c2c(nn1-c1ccc([N+](=O)[O-])cc1)CS(=O)(=O)C2)c1ccc(Br)cc1 | 113
CS(=O)(=O)Nc1ccc(-c2noc(/C=C/c3ccccc3)n2)cc1 | 119
CCOc1ccc2c(c1)-c1c(ssc1=Nc1cccc(Cl)c1)C(C)(C)N2 | 106
Cc1cc(NC2CC2)n2ncnc2n1 | 108
CC(=O)Nc1ccc2c(c1)OCCOCCOCCOCCO2 | 109
N#Cc1c(C(F)(F)F)cc(-c2cccs2)nc1SCC(O)CN1CCSCC1 (configuration not stated) | 104
Cc1ccccc1N1C(=O)C(=O)/C(=C(\O)c2ccccc2)C1c1ccccc1F (configuration not stated) | 105
CCc1nc(CN2C(=O)COc3ccc(S(=O)(=O)N4CCOCC4)cc32)no1 | 97
Cc1ccc(CN2CCCC2c2cc(C(C)C)on2)cc1 (configuration not stated) | 103
COc1ccc(-c2ccc(OCCNC(=O)c3ccc(Cl)cc3)nn2)cc1 | 103
Cc1sc2nc(-c3ccccc3Cl)n(Cc3csc(-c4ccc(Cl)cc4)n3)c(=O)c2c1C | 108
CC1CCCCC12Nc1ccccc1NC2=NCc1cc(F)cc(F)c1 (configuration not stated) | 100
Cc1[nH]n(-c2cccc(Cl)c2)c(=O)c1C=Nc1ccc(Cl)cc1Cl | 108
O=S(=O)(c1cc(-c2noc(C3CCC3)n2)cs1)N1CCCCC1 | 102
CCc1cc(C2CCCN2S(=O)(=O)c2cc(OC)ccc2OC)on1 (configuration not stated) | 108
COCCCNC(=O)c1sc2ncnc(N3CCN(c4ccccc4F)CC3)c2c1C | 104
COc1ccc(Br)cc1C1CC(=O)Nc2c1c(C)nn2-c1nc2ccccc2o1 (configuration not stated) | 105
O=C1c2ccccc2-c2onc3c(N4CCCCC4)cc(Nc4ccc(Cl)cc4)c1c23 | 111
COc1ccc(NC(=O)c2ccc(Oc3nccnc3Oc3ccc(C)cc3)cc2)cc1 | 104
CC(C)COCC1CC2(CC(C)(c3csc(N)n3)OC2=O)C(=O)O1 (configuration not stated) | 106
O=C(CSc1nc(NCc2ccco2)c2ccccc2n1)N1CCN(c2ccccc2)CC1 | 112
COc1ccc(C=Nc2cc3c4c(c2)C(c2ccccc2)CCN4CCC3c2ccccc2)cc1 (configuration not stated) | 107
Cc1ccc(Cl)cc1N1CCN(S(=O)(=O)c2cc(-c3cc(C(F)(F)F)on3)cs2)CC1 | 101
COc1cccc(NC(=O)CSc2nc3ccccc3c(=O)n2CCCC(=O)NCCCN2CCOCC2)c1 | 120
CCCn1nc2ccc(S(=O)(=O)N3CCSCC3)cn2c1=O | 100

Gathered by group: the compounds so far with fluorine.
SMILES | GIV Gai3 FP
CCCCOc1ccc(C2C=C(Nc3ccc(F)cc3)C(=O)N2c2ccc(F)cc2)cc1 (configuration not stated) | 105
O=C1C2C(c3ccccc3Cl)OC3(C(=O)c4ccccc4C3=O)C2C(=O)N1c1cccc(C(F)(F)F)c1 (configuration not stated) | 103
CC1CCCCN1S(=O)(=O)c1ccc(F)c(C(=O)Nc2cccc(Cl)c2Cl)c1 (configuration not stated) | 101
C=CCn1c(=O)c2sc(N3CCCCC3)nc2n(CC(=O)Nc2cc(F)ccc2F)c1=O | 100
CCN1C(=O)COc2ccc(-c3noc(CNS(=O)(=O)c4ccc(F)cc4)n3)cc21 | 106
Cc1c(NC(=O)c2cnn3c(C(F)(F)F)cc(-c4ccco4)nc23)c(=O)n(-c2ccccc2)n1C | 116
COc1ccc(-n2cccc2/C=C2/SC(=Nc3ccc(F)cc3)NC2=O)cc1 | 102
Fc1ccc(NC2=NC3(CCCCC3)Cc3ccccc32)cc1F | 106
COc1ccc(C2C3=C(CC(c4ccc(C(F)(F)F)cc4)CC3=O)Nc3ccccc3N2C(=O)CCC(=O)O)cc1 (configuration not stated) | 103
N#Cc1c(C(F)(F)F)cc(-c2cccs2)nc1SCC(O)CN1CCSCC1 (configuration not stated) | 104
Cc1ccccc1N1C(=O)C(=O)/C(=C(\O)c2ccccc2)C1c1ccccc1F (configuration not stated) | 105
CC1CCCCC12Nc1ccccc1NC2=NCc1cc(F)cc(F)c1 (configuration not stated) | 100
COCCCNC(=O)c1sc2ncnc(N3CCN(c4ccccc4F)CC3)c2c1C | 104
Cc1ccc(Cl)cc1N1CCN(S(=O)(=O)c2cc(-c3cc(C(F)(F)F)on3)cs2)CC1 | 101

High-throughput results as filed in PubChem.
